Screening results deposited in PubChem BioAssay by Broad Institute.
Hedgehog: Hh protein inhibition, biochemical readout – plate reader, single concentration, primary screen (AID 588832); Biochemical plate reader assay, Hedgehog inhibition; active compounds read high; inhibition, % at 30.3 µM; 8,000 tested, under 10 active; in the data active = inhibition from about 57%;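 also: 0% = neutral control wells and 100% = positive control wells; cholesterol-driven self-cleavage of fly hedgehog protein by fluorescence polarization; read one hour after cholesterol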
Starred values were filed as active, the others as inactive.

Start of the data: the first 4 records (preview)
Hedgehog,smiles
9.5,COc1cccc(CNC(=O)c2cc(S(=O)(=O)N3CCCC3)cn2C)c1
10.7,CCc1ccc(C2CC(c3ccc(C)cc3)Nc3nc(N)nn32)cc1 (stereo unspecified)
-4.2,Cc1ccc(Cl)cc1NC(=O)Cn1cc2c(n1)CCCC2
-8.7,O=C(Cn1cccc1)N1CCN(c2ccc(F)cc2)CC1

The whole of this part, repeating the preview:
Hedgehog,smiles
9.5,COc1cccc(CNC(=O)c2cc(S(=O)(=O)N3CCCC3)cn2C)c1
10.7,CCc1ccc(C2CC(c3ccc(C)cc3)Nc3nc(N)nn32)cc1 (stereo unspecified)
-4.2,Cc1ccc(Cl)cc1NC(=O)Cn1cc2c(n1)CCCC2
-8.7,O=C(Cn1cccc1)N1CCN(c2ccc(F)cc2)CC1
0.0,Cc1ccc(C2=NS(=O)(=O)N(C)C(C(=O)NC(C)c3ccccc3)=C2)cc1 (stereo unspecified)
5.4,C=C[C@]1(C)C=C2CCC3[C@](C)(CCC[C@@]3(C)C(=O)O)C2CC1 (stereo partly specified)
28.9,O=C(CCCC(=O)N1CCN(c2cccc(Cl)c2)CC1)c1ccccc1
14.9,Cc1cc(Nc2ccc(C)c(C)c2)n2nc(C)nc2n1
8.2,Cc1ccc(S(=O)(=O)N[C@H](C(=O)N2CCC(C(=O)N[C@H](C(=O)O)c3ccccc3)CC2)C(C)C)cc1
0.9,O=S(=O)(NCCc1csc(-c2ccc(C(F)(F)F)cc2)n1)c1ccc2c(c1)OCCO2
8.7,Cc1ccc2oc(=O)c3cc(C(=O)NCCN4CCN(C)CC4)sc3c2c1
5.2,COCCn1c(SCC(=O)Nc2cc(Cl)ccc2OC)nc2c(c1=O)SC(C)C2 (stereo unspecified)
7.0,Cc1ccccc1CNC(=O)CCC(=O)N1CCOc2ccc(Cl)cc21
6.8,CCOC(=O)COc1cccc2c(=O)n(CC(=O)N3CCc4ccccc43)ccc12
1.7,CCCc1cc(C(=O)Nc2cccnc2)no1
14.1,CC(=O)Nc1nnc(C)s1
7.0,CC(C)c1ccc(OCC(=O)N(Cc2ccco2)C2CCS(=O)(=O)C2)cc1 (stereo unspecified)
3.5,Cc1cc2ccccc2n1CCNC(=O)c1cccs1
8.7,COc1ccccc1S(=O)(=O)Cc1ccc(C(=O)N2CCN(c3ccc(C)cc3)C(C)C2)o1 (stereo unspecified)
0.0,C=CCN1C(=O)C(O)(CC(=O)c2ccco2)c2cc(Br)ccc21 (stereo unspecified)
8.9,CC(C)c1ccccc1
4.2,CCOc1ccc(NC(=O)CSc2nnc(COc3c(C)cccc3C)o2)cc1
2.8,O=C(c1cccc(NC2=NC3CS(=O)(=O)CC3S2)c1)N1CCN(c2ncccn2)CC1 (stereo unspecified)
7.7,COc1cccc(C(c2sc3ncnn3c2O)N2CCc3ccccc3C2)c1 (stereo unspecified)

Pulled one by one from above, five records:
Hedgehog,smiles
2.8,O=C(c1cccc(NC2=NC3CS(=O)(=O)CC3S2)c1)N1CCN(c2ncccn2)CC1 (stereo unspecified)
14.1,CC(=O)Nc1nnc(C)s1
6.8,CCOC(=O)COc1cccc2c(=O)n(CC(=O)N3CCc4ccccc43)ccc12
4.2,CCOc1ccc(NC(=O)CSc2nnc(COc3c(C)cccc3C)o2)cc1
7.7,COc1cccc(C(c2sc3ncnn3c2O)N2CCc3ccccc3C2)c1 (stereo unspecified)

Arranged by molar mass (descending): three of the compounds above.
Hedgehog,smiles
8.7,COc1ccccc1S(=O)(=O)Cc1ccc(C(=O)N2CCN(c3ccc(C)cc3)C(C)C2)o1 (stereo unspecified)
4.2,CCOc1ccc(NC(=O)CSc2nnc(COc3c(C)cccc3C)o2)cc1
7.7,COc1cccc(C(c2sc3ncnn3c2O)N2CCc3ccccc3C2)c1 (stereo unspecified)

Continued.
Hedgehog,smiles
2.2,CCOc1cc(C#N)c(NC(=O)c2ccnn2C)cc1OCC
10.9,O=C(NCc1ccccc1Cl)c1ccc(NC2=NC3CS(=O)(=O)CC3S2)cc1 (stereo unspecified)
5.2,O=C(O)c1cc(=O)c2ccccc2[nH]1
5.2,CCOC(=O)CN1CC23C=CC(O2)C(C(=O)Nc2ccc(C(C)=O)cc2)C3C1=O (stereo unspecified)
5.4,Nc1nonc1-n1nnc(C(=O)N/N=C/c2cccc(Cl)c2)c1CN1CCCCCC1
3.6,COC(=O)C1CCN(S(=O)(=O)c2cn(C)c(=O)n(C)c2=O)CC1
0.0,CC(C)N(Cc1nc(-c2ccc(Cl)cc2)no1)C(=O)CCCN1C(=O)c2ccccc2C1=O
0.0,Cc1nc(SCC(=O)Nc2cc(C)on2)c2c(=O)n(C)c(=O)n(C)c2n1
8.3,COc1ccccc1NC(=O)C1CCCN(S(=O)(=O)c2ccc3[nH]c(=O)ccc3c2)C1 (stereo unspecified)
6.8,O=C(CCC(=O)N1CCOc2ccccc21)Nc1ccccc1Cl
12.5,CCC(C)NC(=O)C1CCN(S(=O)(=O)c2ccc3[nH]c(=O)ccc3c2)CC1 (stereo unspecified)
5.4,C=CCSc1nc2c(c(=O)[nH]c(=O)n2C)n1Cc1ccc(C)cc1

Part of the list above, as a markdown table.
| smiles | Hedgehog |
| --- | --- |
| CC(C)N(Cc1nc(-c2ccc(Cl)cc2)no1)C(=O)CCCN1C(=O)c2ccccc2C1=O | 0.0 |
| Cc1nc(SCC(=O)Nc2cc(C)on2)c2c(=O)n(C)c(=O)n(C)c2n1 | 0.0 |
| COc1ccccc1NC(=O)C1CCCN(S(=O)(=O)c2ccc3[nH]c(=O)ccc3c2)C1 (stereo unspecified) | 8.3 |
| O=C(CCC(=O)N1CCOc2ccccc21)Nc1ccccc1Cl | 6.8 |

Following part:
Hedgehog,smiles
7.0,Cc1oc2c(C)c3oc(=O)c(CC(=O)N[C@@H](CC(C)C)C(=O)N[C@@H](Cc4ccccc4)C(=O)O)c(C)c3cc2c1C
7.3,CCCN1CCN(S(=O)(=O)c2ccc3c(c2)NC(=O)C(C)C(=O)N3)CC1 (stereo unspecified)
11.1,COc1ccccc1CNC(=O)c1ccc(CS(=O)(=O)c2ccccc2)o1
3.6,Cc1cccc(N2CCN(C(=O)C3CCCN(S(=O)(=O)c4c(C)noc4C)C3)CC2)c1C (stereo unspecified)
0.0,COc1ccccc1NC(=O)CSc1nnc(Cn2c(=O)sc3ccccc32)n1C
9.5,CCCCn1c(SCC(=O)OCC)nc2c1c(=O)[nH]c(=O)n2C
4.9,CSCC[C@H](N)C(=O)N1CCC(C(=O)N[C@H](C(=O)NCc2ccccc2F)C(C)C)CC1
5.2,Cc1oc(-c2ccccc2F)nc1CS(=O)CC(=O)NC1CCCCC1 (stereo unspecified)
7.0,CCOC(=O)c1c(NC(=O)CN2C(=O)c3ccccc3C2=O)sc(Cc2ccc3c(c2)OCO3)c1C
7.2,Cc1c(CCC(=O)NCCCN2CCCC2=O)c(=O)oc2cc(O)ccc12

Not all compounds are listed. The share of hits here may be higher or lower than overall.
